KCNQ2 block – KCNQ2 potassium channel inhibitors, primary screen, cell-based, CHO-K1, FluxOR thallium flux, B-score (AID 2156) | Potassium voltage-gated channel subfamily KQT member 2 (Rattus norvegicus), O88943 | B-score at 10 µM | hit rate 1.1% among 310,000 | 20 min; stronger effect = lower value; only compounds with negative scores are shown here; some inactives read as strong as hits;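 active = fluorescence ratio B-score at most minus 3 library SDs, with starting brightness B-score within 2 library SDs, cut at about -5.5 in these data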
Target sequence (O88943 whole entry, looked up): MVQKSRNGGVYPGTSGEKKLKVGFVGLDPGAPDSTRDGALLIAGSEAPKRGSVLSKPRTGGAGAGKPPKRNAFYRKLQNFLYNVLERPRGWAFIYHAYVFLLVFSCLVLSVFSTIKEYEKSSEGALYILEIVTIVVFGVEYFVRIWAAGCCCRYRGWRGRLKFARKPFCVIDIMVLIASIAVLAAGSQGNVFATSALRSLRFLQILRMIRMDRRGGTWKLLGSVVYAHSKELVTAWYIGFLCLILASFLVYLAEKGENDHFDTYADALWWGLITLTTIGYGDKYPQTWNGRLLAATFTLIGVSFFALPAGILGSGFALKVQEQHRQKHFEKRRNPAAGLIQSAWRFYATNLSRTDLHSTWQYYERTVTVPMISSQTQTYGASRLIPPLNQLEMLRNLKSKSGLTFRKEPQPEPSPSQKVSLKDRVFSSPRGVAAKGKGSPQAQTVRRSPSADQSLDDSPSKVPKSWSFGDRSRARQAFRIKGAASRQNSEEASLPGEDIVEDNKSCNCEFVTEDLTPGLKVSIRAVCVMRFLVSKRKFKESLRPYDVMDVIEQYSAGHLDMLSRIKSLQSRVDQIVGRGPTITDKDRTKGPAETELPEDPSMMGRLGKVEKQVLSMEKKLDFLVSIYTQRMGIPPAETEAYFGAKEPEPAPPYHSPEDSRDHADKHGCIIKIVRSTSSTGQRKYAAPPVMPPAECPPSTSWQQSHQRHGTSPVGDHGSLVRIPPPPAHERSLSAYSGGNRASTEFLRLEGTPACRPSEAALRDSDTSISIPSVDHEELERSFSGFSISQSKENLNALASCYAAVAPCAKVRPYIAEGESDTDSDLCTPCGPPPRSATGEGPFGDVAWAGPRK
KCNQ2 block baseline – also measured in KCNQ2 block; calls as there; B-score; measured here: initial fluorescence intensity artifact check;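 brightness before thallium and not channel activity; 0 = typical well and far values either way flag optical interference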
Starred values were filed as active, the others as inactive; i = inactive.

cpd	compound	KCNQ2 block baseline	KCNQ2 block
1	CCOC(=O)CCN1C(=O)c2ccccc2Sc2ncccc21	-0.62	i
2	O=C(NCCCO)C(=O)NCC(c1ccc2c(c1)OCO2)N1CCN(c2ccc(F)cc2)CC1 (configuration not stated)	-0.23	i
3	Cc1ccc(-c2nnc3ccc(SCC(=O)Nc4cc(C)on4)nn23)cc1	-1.8	i
4	CC(C)CCNC(=O)CN(C(=O)CCC(=O)Nc1ccccn1)c1ccc(F)c(Cl)c1	0.02	i
5	COC(=O)c1c(N2C(=O)[C@H]3[C@@H](C2=O)[C@]2(C(=O)Nc4c2ccc(C)c4C)N2CCC[C@@H]32)sc(C)c1C	2.8	i
6	CCCNS(=O)(=O)c1ccc(OCC(=O)N2CCCC2)cc1	1.2	i
7	O=c1c(NCCc2ccccc2)c(-c2ccccc2)c1=O	4.1	i
8	Cc1occc1-c1nnc(SCC(=O)NCc2cccs2)n1-c1ccc(F)cc1	1.1	i
9	NC(=O)c1ccccc1NC(=O)c1ccc2ccccc2c1	0.68	i
10	COC(=O)NCCc1cc(OC)c(OC)cc1S(=O)(=O)N1CC(=O)Nc2ccccc21	1.1	i
11	O=C(O)C1(c2ccccc2)CCN(S(=O)(=O)c2ccccc2)CC1	0.2	i
12	O=C(C1CCCO1)N1CCN(C(=S)Nc2ccccc2)CC1 (configuration not stated)	0.95	i
13	COc1ccccc1N1N=C(c2cccs2)CC1c1ccccc1 (configuration not stated)	0.15	i
14	CSC(=NC#N)N1CCN(c2ccc(Cl)cc2)CC1	-0.25	i
15	CN(C(=O)COc1ccc(Cl)cc1Br)C1CCCCC1	-1.8*	-7.8*
16	CC(C)c1ccc(NC(=S)NNc2ccc(Cl)c(C(=O)O)c2)cc1	-1.5	i
17	CCOc1ccccc1NC(=O)N1CCCC1C(=O)Nc1nnc(CC)s1 (configuration not stated)	0.6	i
18	CCOc1ccc2nc(NC(=O)C3CCCN(S(=O)(=O)c4cccc5nonc45)C3)sc2c1 (configuration not stated)	1.1	i
19	COc1ccc(Cn2c(/C=C/c3ccccc3)nc3ccccc32)cc1	-0.24	i
20	COc1ccc(/C=N/NC(=O)CC(=O)N/N=C/c2ccc(OC)cc2)cc1	-1.9	i
21	COc1ccc(N(C(C)C(=O)NCc2ccco2)S(C)(=O)=O)cc1 (configuration not stated)	-0.04	i
22	CCc1ccc(S(=O)(=O)Nc2cccc(-c3ccc4nnc(C)n4n3)c2)s1	1.4	i
23	CCOc1cccc(C2/C(=C(/O)c3ccc4c(c3)CC(C)O4)C(=O)C(=O)N2Cc2ccncc2)c1 (configuration not stated)	1.3	i
24	COc1ccccc1-c1n[nH]c(=S)n1Cc1ccco1	-0.26	i
25	N#CCCn1c2ccccc2c2nc3ccccc3nc21	0.94	i
26	COc1ccc(OC)c(S(=O)(=O)N(C)CC(=O)N2CCc3ccccc3C2)c1	-0.51	i
27	O=C(N/N=C/c1ccc2c(c1)OCO2)C(=O)Nc1ccccc1	1.4	i
28	Oc1ccccc1CN1CCCC(N2CCN(c3cccc(C(F)(F)F)c3)CC2)C1 (configuration not stated)	-0.52	i
29	COc1ccc(-n2c(SC(CN3CCCCC3)CN3CCCC3=O)nc3ccccc3c2=O)cc1 (configuration not stated)	0.05	i
30	Cc1ccc(S(=O)(=O)N2CCN(C(=O)c3cccs3)CC2)cc1	0.1	i
31	CCOc1ccc(NC(=O)CN2CCN(CC(=O)Nc3ccc(F)c(F)c3)CC2)cc1	0.8	i
32	CCn1c(SCc2cccc(C(=O)O)c2)nnc1-c1ccccc1	0.15	i
33	COCC(C)NC(=O)c1ccccc1OC(C)=O (configuration not stated)	-0.3	i
34	CC1CCCN(S(=O)(=O)c2cc(Cl)ccc2Cl)C1 (configuration not stated)	1.6	i
35	COc1ccccc1N1CCN(Cc2cc(=O)c(OCC#N)co2)CC1	0.05	i
36	O=C(Nc1ccccc1C(=O)O)c1cc(S(=O)(=O)N2CCCCC2)c(Cl)cc1Cl	0.36	i
37	O=c1[nH]c2ccc(NC(=S)Nc3ccccc3)cc2[nH]1	-1.2	i
38	CC1=C(C#N)C(c2ccoc2)C(C(=O)OCc2ccccc2)=C(N)S1 (configuration not stated)	0.38	i
39	CCOc1ccc(S(=O)(=O)NCCC(=O)N(C)Cc2ccc(C)o2)cc1	1.1	i
40	O=C(Cn1cc2c(n1)CCCCC2)NCc1cccs1	2.3	i

A few values from the results shown:
KCNQ2 block baseline with compound 35 → 0.05
KCNQ2 block baseline with compound 40 → 2.3
KCNQ2 block baseline with compound 32 → 0.15

More results follow.
cpd	compound	KCNQ2 block baseline	KCNQ2 block
41	CCC(O)(c1ccccc1)C(CN1CCOCC1)c1ccccc1 (configuration not stated)	1.2	i
42	Oc1ccc(-c2nccc(-c3cccs3)n2)cc1	-0.45	i
43	COc1cccc2c1Oc1cc([N+](=O)[O-])cc(N(C)C(C)=O)c1C=C2	0.26	i
44	CCCCOC(=O)c1ccc(NC(=O)CSc2nncn2C)cc1	0.45	i
45	COc1ccc(C(=O)c2c[nH]c(C(=O)NCCCn3ccnc3)c2)cc1	2.7	i
46	COc1ccc(C2CC3CC(c4ccccc4)N2O3)cc1 (configuration not stated)	0.78	i
47	CN(C(=O)c1ccc(S(=O)(=O)N(C)C)cc1)c1ccc2ccccc2c1	-0.51	i
48	CSc1nnc2c3cc(F)ccc3n(Cc3ccccc3)c2n1	1.5	i
49	O=C(O)C1CCCN(S(=O)(=O)c2ccccc2)C1 (configuration not stated)	2	i
50	Cc1cc(C(=O)OCC(=O)N2CC(C)OC(C)C2)c2ccccc2n1 (configuration not stated)	0.11	i
51	Clc1ccc(CSc2nnc(NC3=NCCCCC3)s2)cc1	-0.97	i
52	CCOC(=O)c1c(NC(=O)CNCCO)sc(C)c1C	0.66	i
53	O=c1c2ccccc2nc(SCc2cc(F)cc3c2OCOC3)n1Cc1ccco1	0.76*	-8*
54	COC(=O)CCn1nnc(-c2ccc(C(C)C)cc2)n1	2	i
55	COc1ccc(OC)c(CCNC(=O)c2ccc3c(c2)N(Cc2ccc(F)cc2)CCS3)c1	-1.2	i
56	O=C(COC(=O)CCc1nc2ccccc2c(=O)[nH]1)NC(=O)NC1CCCC1	0.65	i
57	CCNC(=O)N1CCC(c2nc3ccccc3s2)CC1	-2	i
58	O=C(NC(=S)NCCc1ccccc1)c1ccccc1F	-0.2	i
59	O=C(O)/C=C/C(=O)Nc1ccc(Cl)c(C(=O)O)c1	2.4	i
60	CCOC(=O)c1sc(C)c(C(=O)NCCCN2CCOCC2)c1N	0.15	i
61	Cc1nn(Cc2ccccc2)c(Cl)c1C(=O)OC(C)C#N (configuration not stated)	-0.74	i
62	CCCCOc1cc(C(=O)NCCN(CC)CC)c2ccccc2n1	-0.4	i
63	Clc1ccc(SCCn2cncn2)cc1	0.94	i
64	O=C1CN(C(=O)c2ccccn2)c2ccccc2N1	0.79	i
65	CCc1ccc(NC(=O)CCc2nc3cccnc3n2Cc2ccc(OC)cc2)cc1	2.5	i
66	O=C(COC(=O)c1ccc(Cl)nc1)NCCC1=CCCCC1	-0.03	i
67	Cn1cccc1Cc1nnc(SCC(=O)Nc2ccc(F)cc2)n1CCc1ccccc1	0.52	i
68	COc1ccc(Nc2nc(NCCCN3CCOCC3)nc(N)c2[N+](=O)[O-])cc1	0.04	i
69	COC(=O)c1ccc(OCC(=O)c2ccccc2)cc1	-0.4	i
70	CCCCOC(=O)Cn1c(=O)n(CC(=O)OCCCC)c2ccccc21	0.31	i
71	CCOC(=O)c1sc(NCc2ccco2)c(-c2nc3ccccc3s2)c1N	0.02	i
72	O=S(=O)(Nc1cccc(-c2cn3cccnc3n2)c1)c1ccc(F)cc1	-3.4	i
73	CCN1C(=O)[C@H]2[C@@H](c3ccc(-c4ccc(Cl)c(Cl)c4)cc3)N3CCCC[C@@]3(C(=O)OC)[C@H]2C1=O	-0.2	i
74	NC(=O)CC(NC(=O)c1cccc(Br)c1)c1ccc(N2CCC(N3CCCC3)CC2)c([N+](=O)[O-])c1 (configuration not stated)	-0.65	i
75	CSc1ccc(NC(=O)C(C)N2CCN(C)CC2)cc1 (configuration not stated)	0.68	i
76	CCC(C)(C)NC(=O)CN(Cc1cccs1)C(=O)CCC(=O)Nc1nccs1	-0.32	i
77	COc1ccccc1Nc1nc(-c2sc(N)nc2C)cs1	1.7	i
78	Cc1ccc(S(=O)(=O)NNC(=O)c2sc3nc(C)cc(C)c3c2-n2cccc2)cc1	-0.79	i
79	COC/C=C/C1=CC2=CC(=O)C(C)(OC(=O)CCC(=O)OC)C(=O)C2=CO1 (configuration not stated)	0.07	i
80	CCOC(=O)C(=O)Nc1ccc(S(=O)(=O)Nc2nccs2)cc1	-0.6	i
81	CC(C)Cn1c(CN2CCCCC2C)nc2c1c(=O)n(C)c(=O)n2C (configuration not stated)	1.3	i
82	CCCN1CCN(C(=S)Nc2ccc(S(N)(=O)=O)cc2)CC1	1.8	i
83	O=C(NCC1CCCN1S(=O)(=O)c1cccs1)C(=O)Nc1ccc(F)cc1F (configuration not stated)	-1.3	i
84	N#Cc1c(NC(=O)CCCl)sc2c1CCCCC2	1.9	i
85	COCCNC(=O)CN1C(=O)CSc2cc(S(=O)(=O)N3CCCCCC3)ccc21	0.97	i
86	N#Cc1c(/N=C/c2ccccc2)oc(-c2ccccc2)c1-c1ccccc1	-0.6	i
87	Cc1cc2c(cc1S(=O)(=O)N(C)Cc1ccccc1)OCC(=O)N2	0.01	i
88	CC(C)(C)C(=O)NC1CCN(S(=O)(=O)c2cccc(C(F)(F)F)c2)CC1	2.4	i
89	Cc1ccccc1NC(=O)CN1C(=O)N/C(=C\c2cccn2-c2cccc(C(=O)O)c2)C1=O	0.59	i
90	COC(=O)c1c(NC(=O)CSc2nnnn2C)sc(C)c1C	2.1	i
91	CSc1nnc(NC(=O)c2cc3ccccc3oc2=O)s1	0.1	i
92	CCOc1ccc(Br)cc1C(=O)Nc1ccc(C(=O)NCC(C)C)cc1	0.73	i
93	COc1cc(CCN2C(=O)c3cccc4cccc(c34)C2=O)c(S(=O)(=O)N2CCC(C)CC2)cc1OC	0.01*	-6.7*
94	CC(C)COP(=O)(OCC(C)C)C(Nc1ccccc1)c1ccccc1 (configuration not stated)	1.2	i
95	Cc1ccc(S(=O)(=O)NCCC(=O)OCC(=O)N(Cc2ccccc2)C(C)(C)C)cc1	-0.12	i
96	COCCNC(=O)Cn1nc(C)c([N+](=O)[O-])c1C	0.43	i
97	N/C(=N\OC(=O)c1ccccc1F)c1ccc([N+](=O)[O-])cc1	-0.95	i
98	Cc1ccccc1C(=O)O/N=C(\N)c1ccccc1	-0.79	i
99	Cc1nn(CC(=O)Nc2cccnc2)c(=O)c2ccccc12	-1.8	i
100	O=C(CCS(=O)(=O)CCN1CCOCC1)NCNC(=O)CCS(=O)(=O)CCN1CCOCC1	0.02	i

Complete entries from above. Order of values: KCNQ2 block baseline	KCNQ2 block
Oc1ccccc1CN1CCCC(N2CCN(c3cccc(C(F)(F)F)c3)CC2)C1 (configuration not stated) is listed as -0.52	i
O=C(C1CCCO1)N1CCN(C(=S)Nc2ccccc2)CC1 (configuration not stated) is listed as 0.95	i
COC(=O)c1c(NC(=O)CSc2nnnn2C)sc(C)c1C is listed as 2.1	i
COC(=O)CCn1nnc(-c2ccc(C(C)C)cc2)n1 is listed as 2	i
O=c1[nH]c2ccc(NC(=S)Nc3ccccc3)cc2[nH]1 is listed as -1.2	i

Additional compounds
cpd	compound	KCNQ2 block baseline	KCNQ2 block
101	O=C(NCc1ccco1)N1c2ccccc2Sc2ccccc21	0.68	i
102	COc1ccccc1-c1nc(-c2ccncc2)no1	-0.06	i
103	CCC(C)Sc1cc(-c2nc3ccc(C)cn3c2NCc2ccccc2)ccc1OC (configuration not stated)	-0.99	i
104	Cc1cc2cc(C#N)c(N3CCOCC3)nc2cc1Cl	2.2	i
105	Fc1cccc(Cl)c1CN1CCN(c2nc3ccccc3s2)CC1	-0.49	i
106	COCCN(C(=O)c1snc(C(N)=O)c1N)C(C(=O)NC1CCCC1)c1cc(OC)c(OC)c(OC)c1 (configuration not stated)	-0.08	i
107	CC1CCCC(C)N1CCCNC(=O)Cn1ncc2c3ccccc3n(C)c2c1=O (configuration not stated)	0.03	i
108	Cc1cc(C(=O)Nc2c(C)nn(Cc3ccccc3)c2C)on1	0.88	i
109	C=CCOc1ccc(/C=C/C(=O)Nc2ccc(C(=O)NC)cc2)cc1	1.2	i
110	O=C(NCC1CCCN1S(=O)(=O)c1cccs1)c1ccc(F)cc1 (configuration not stated)	-0.93	i
111	CN(CCC1CCOCC1)C(=O)CC1C(=O)NCCN1Cc1cccc(F)c1 (configuration not stated)	0.84	i
112	Cc1ccccc1Nc1c(-c2ccccn2)nc2ccccn12	0.04	i
113	COc1ccc(C2CC(c3ccccc3OC(C)=O)=NN2C(=O)/C=C/c2ccccc2)cc1OC (configuration not stated)	-0.97	i
114	O=C(NCCCN1CCCCC1)C1CCN(c2ncnc3c2nc2n3CCCCC2)CC1	0.04	i
115	O=C(CSC1=NCCS1)Nc1nc2ccccc2s1	0.06	i
116	Cc1[nH]c2ccccc2c1C(=O)/C=C/c1ccccc1	-0.1	i
117	CCOc1ccc(OCc2cccc(C(=O)N(CC)CC)c2)cc1	-0.56	i
118	Clc1cccc(Cc2nn[nH]n2)c1	0.25	i

Two of the compounds above, in transposed form.
114) O=C(NCCCN1CCCCC1)C1CCN(c2ncnc3c2nc2n3CCCCC2)CC1
115) O=C(CSC1=NCCS1)Nc1nc2ccccc2s1

compound no.,114,115
KCNQ2 block baseline,0.04,0.06
KCNQ2 block,i,i

Bioassay records deposited in PubChem BioAssay by Johns Hopkins Ion Channel Center.

This is a subset. The share of hits here may be higher or lower than overall.
